Screening results as filed in PubChem.
Vaccinia mCherry: inhibitors of vaccinia virus infection (mCherry reporter signal); Potency, µM (series often up to 36.5 µM), inactives show at the top dose activity change, negative = inhibition, usual class: inhibitors; 310,000 compounds, 0.63% hits; AID 720579; Vaccinia virus mCherry reporter infection, fluorescence; about a quarter of the inactives have no number; active = well fitted inhibition curve with a large enough effect; inconclusive = small, poorly fitted or top-dose-only effect; inactive = no such curve, though single readings can be large or run the other way; tested in A549 cells; further: nearly all actives have a fitted effect of over 35% in size; inactives centre near -10
Vaccinia Venus: vaccinia inhibition (Venus reporter) | Vaccinia virus Venus reporter expression, fluorescence | Potency, µM (highest dose often 36.5 µM), for inactives: at the top dose activity change, negative = inhibition, most hits filed as inhibitors | 330,000 compounds, 0.46% hits; active means well fitted inhibition curve with a large enough effect; inconclusive means small, poorly fitted or top-dose-only effect; inactive means no such curve, though single readings can be large or run the other way; tested in A549 cells; further: nearly all actives have a fitted effect of over 30% in size; inactives centre near -10
Numbers without * were called inactive; i = inactive; ? = inconclusive; . = not tested or not shown; & = joins results of further samples; [ ] = dose if it differs, or a comment. On the % scale 0 is the no-effect control and ±100 the full control effect; potency means the concentration at half of the fitted maximal effect.

Sample of the layout, 2 compounds:
Structure | Vaccinia mCherry | Vaccinia Venus
Cn1c(=O)n(C)c2cc([N+](=O)[O-])c(N3CCNCC3)cc21 | -9% | -8%
CC(C)OC(=O)c1ccc(N)cc1 | -1% | -5%

Main list (from the top)
Structure | Vaccinia mCherry | Vaccinia Venus
Cn1c(=O)n(C)c2cc([N+](=O)[O-])c(N3CCNCC3)cc21 | -9% | -8%
CC(C)OC(=O)c1ccc(N)cc1 | -1% | -5%
Cc1cccc(NC(=S)NNC(=O)CCn2cc(C)cn2)c1 | -2% | -5%
CCOc1cc(N2CCOCC2)c(OCC)cc1NC(=O)CN1C(=O)C2CC=CCC2C1=O (centres undefined) | -11% | -1%
Cc1n[nH]c(C)c1CCC(=O)N/N=C/c1cccs1 | i | -17%
CC(=O)c1cccc(NC(=O)C2Cc3c(-c4ccccc4Oc4ccccc4)ccnc3O2)c1 (centres undefined) | -16% | -27%
C/C(CC(=O)Nc1ccccn1)=N\NC(=O)c1ccc(C)cc1 | -11% | -12%
CCOC(=O)c1c(C)oc2cc(Br)c(O)c(Br)c12 | -1% | 5%
COc1ccc(NC(=O)c2cccc(NC3=NC4CS(=O)(=O)CC4S3)c2)cc1Cl (centres undefined) | i | -13%
COC(=O)c1c(NC(C)=O)sc(C)c1C | -22% | 15%
Cc1nn(C)c(C)c1NC(=O)Nc1ccc(Cl)c(Cl)c1 | i | -14%
Fc1ccc(-c2noc3ncnc(NCc4ccc(Cl)cc4)c23)cc1 | -6% | -5%
CCOC(=O)C(CC)Sc1nc2c(cnn2-c2ccc(F)cc2)c(=O)[nH]1 (centres undefined) | -8% | -12%
Cc1cc(NC(=O)c2ccc(-c3ccc(Cl)cc3)o2)cc(-c2nc3ncccc3o2)c1O | -4% | -3%
Clc1cccc(CN2CCN(Cc3ccco3)CC2)c1 | -8% | -12%
COc1ccc(/C=N/NC(=O)c2cc(C3CC3)[nH]n2)cc1OC | -11%[7.34 µM] | -13%[7.34 µM]
COC(=O)CC1C(=O)NCCN1C(=O)Nc1ccccc1 (centres undefined) | -11% | -6%
Cc1ccc(-n2ncc3c2CC(C)(C)CC3NC(=O)c2ccncc2)cc1 (centres undefined) | -13% | -8%
NC(=O)N/N=C/c1c(F)c(F)c(F)c(F)c1F | -29% | -20%
CCOC(=O)C(C)(C)Sc1nc2c(cnn2-c2ccc(Cl)cc2)c(=O)[nH]1 | 5% | 0%
CC(C)(C)S(=O)N1Cc2cc(C(=O)O)nc(-c3cccc(-c4cc5ccccc5o4)c3)c2[C@H]1CCO (some centres undefined) | 12% | 0%
CCOC(=O)C1=C(C)NC(C)=C(C(=O)OCC)C1C(=O)OC1CCOC1=O (centres undefined) | -15% | 11%&4%
CN(CC1CCCO1)S(=O)(=O)c1ccc(C(=O)Nc2ccccc2F)cc1 (centres undefined) | -12% | -16%
O=S(=O)(Cc1ccccc1)Nc1cccc(F)c1 | -13% | -29%
CC1CCCN(C/C(O)=C(\C#N)c2nc3ccccc3[nH]2)C1 (centres undefined) | 3% | -12%
CCN(CC)P(=O)(c1n(CC)cc[n+]1CC)N(CC)CC | -11% | -10%
COC(=O)c1ccc(NC(=O)N2CCOCC2)cc1 | -16% | -9%
COCC(C)n1c(SCC(=O)NCCC2=CCCCC2)nc2ccccc2c1=O (centres undefined) | i | -16%
CN1CCN(CCNC(=O)c2ccc(CS(=O)c3ccc(Br)cc3)o2)CC1 (centres undefined) | -4% | -7%
CCC(=O)Nc1ccc(C(=O)NNC(=O)c2cccs2)cc1 | -11% | -10%
CCc1nc(N2CCN(S(C)(=O)=O)CC2)c2c3c(sc2n1)CCCC3 | i | -17%
COc1cc(/C=C2\SC(=O)N(c3cccc(Cl)c3)C2=O)cc([N+](=O)[O-])c1O | -24% | -10%
CC(C)CCNC(=O)c1ccc(Cn2c(=O)c3cccn3c3cccnc32)cc1 | -12% | -18%
CCn1c(SCC(=O)N2CCN(C(=O)c3ccco3)CC2)nnc1C(C)C | i | -10%
COC(=O)c1ccc(NC(=S)Nc2ccccc2)cc1 | -1% | -11%
CCCCC(=O)N/N=C(C)/C=C/c1ccccc1F | 0% | -16%
CCOc1ccccc1C(=O)NCc1ccc2c(c1)CCN2C(C)=O | ? | -26%
CCOc1cc(C(=O)Nc2ccon2)cc(OCC)c1OCC | i | -3%
COc1cc(F)c(C2=CC(=O)C[C@H](c3ccc(Cl)cc3)C2)cc1F | -23% | ?
Cc1ccc(NS(=O)(=O)c2c(C(=O)N3CCOCC3)c(C)n(C)c2C)cc1 | -17%[7.34 µM] | -6%[7.34 µM]
CCC(OC(=O)C(NC(=O)c1ccccc1)c1ccccc1)C(=O)Nc1cc(C)on1 (centres undefined) | 3% | 3%
Cc1ccc(NC(=O)C2CCN(S(=O)(=O)c3ccc4c(c3)C(C)(C)C(=O)N4C)CC2)c(C)c1 | i | -23%
COc1ccc(NS(=O)(=O)c2ccc(N)cc2)nn1 | -14% | -3%
CCOC(=O)N1CCC(Nc2c(NCCCN(CC)Cc3ccccc3)c(=O)c2=O)CC1 | -21%&-7% | -2%&0%
O=C(Nc1ccc2c(c1)OCCO2)c1oc2ccccc2c1NC(=O)C1CC1 | -19% | -12%
COCCn1c(SCC(=O)N(C)c2ccccc2)nc2c([nH]c3ccccc32)c1=O | -4% | -9%
CCOc1ccccc1-n1c(=S)sc2c(=O)n(-c3ccc(F)cc3)c(SCC(=O)O)nc21 | i | -1%
Cc1cc(C)c(C)c(S(=O)(=O)NCc2ccc(C(=O)N3CCCCC3)cc2)c1C | -29% | -27%
CCN(C)C1CN(Cc2cn(Cc3cccc(C(F)(F)F)c3)nn2)S(=O)(=O)C1 (centres undefined) | 25% | -5%
C#CCOCCOCCOCCNc1nc(N2CCN(C(=O)CCCCCCCCCCNC(=O)Cn3cc(C[C@@H](C)O)nn3)CC2)nc(N2CCN(C(=O)CCCCCCCCCCNC(=O)[C@H](CCCN=C(N)N)n3cc(C[C@@H](C)CC)nn3)CC2)n1 | -21% | 11µM*
O=c1[nH]c(=O)n(-c2ccc(F)cc2)c(O)c1/C=C1\C=Nc2ccccc21 | -13% | -6%
CCCCCC(=O)N[C@@H](c1ccccc1)[C@@H](O)C(=O)O[C@H]1C[C@@]2(O)[C@@H](OC(=O)c3ccccc3)C3[C@](C)(C(=O)[C@H](O)C(=C1C)C2(C)C)[C@@H](OC1OCC(O)C(O)C1O)C[C@H]1OC[C@@]31OC(C)=O (some centres undefined) | 12% | -16%
O=c1cccc2n1CC1CC2CN(CC(O)CN2CC3CC(C2)c2cccc(=O)n2C3)C1 (centres undefined) | i | -9%
Cc1cc(OCC(O)CN2CCc3ccccc3C2)cc(C(C)C)c1 (centres undefined) | -12% | -17%
COC(=O)c1cnn(-c2ccc(Cl)cc2)c1/C=N/NC(N)=S | -3% | -20%
Cn1c(=N)n(CC(=O)C(C)(C)C)c2ccccc21 | . | ?
O=C(c1cnn2c(C(F)F)cc(-c3ccccc3)nc12)N1CCCc2ccccc21 | -9% | 0%
Cc1cccc(C(=O)NNC(=O)CCC(=O)Nc2cccc(Cl)c2C)c1 | -20% | -7%
CCOC(=O)C1(Cc2cccc(Cl)c2)CCCN(C(=O)c2ccc(C)nc2)C1 (centres undefined) | -7% | 3%
Cc1ccc(/C=C/C(=O)N2CCC(c3nc4ccccc4o3)CC2)cc1 | 1% | -5%

Laid out differently: results already given.
Every second line gives: Vaccinia mCherry	Vaccinia Venus
Cc1ccc(/C=C/C(=O)N2CCC(c3nc4ccccc4o3)CC2)cc1
  1%	-5%
Cc1ccc(NC(=O)C2CCN(S(=O)(=O)c3ccc4c(c3)C(C)(C)C(=O)N4C)CC2)c(C)c1
  i	-23%
C#CCOCCOCCOCCNc1nc(N2CCN(C(=O)CCCCCCCCCCNC(=O)Cn3cc(C[C@@H](C)O)nn3)CC2)nc(N2CCN(C(=O)CCCCCCCCCCNC(=O)[C@H](CCCN=C(N)N)n3cc(C[C@@H](C)CC)nn3)CC2)n1
  -21%	11µM*
O=C(c1cnn2c(C(F)F)cc(-c3ccccc3)nc12)N1CCCc2ccccc21
  -9%	0%
COC(=O)c1ccc(NC(=S)Nc2ccccc2)cc1
  -1%	-11%

Next compounds.
Structure | Vaccinia mCherry | Vaccinia Venus
O=C1C=C(c2ccccc2)CO1 | -14% | -4%
Clc1ccc(NCn2cncn2)nc1 | . | -9%
O=C(O)C(Cc1c[nH]c2ccccc12)NS(=O)(=O)c1ccc(Cl)c(C(F)(F)F)c1 (centres undefined) | -5% | -5%
O=C(NCc1ccccc1Cl)c1ccc2c(c1)N(Cc1ccccc1)C(=O)c1ccccc1S2 | -14% | -9%
C#CCOCCOCCOCCNc1nc(N2CCN(C(=O)[C@H](CCC(=O)O)n3cc(C(N)[C@H](C)CC)nn3)CC2)nc(N2CCN(C(=O)[C@H](Cc3ccc(O)cc3)n3cc(C(N)[C@H](C)CC)nn3)CC2)n1 (some centres undefined) | -11% | -2%
CC(C(=O)c1cn(C)c2ccccc12)c1ccccc1 (centres undefined) | -2% | -6%
COc1cc(/C=C/C(=O)O)cc(S(=O)(=O)Nc2cc(Cl)c(Cl)cc2Cl)c1OC | -8% | -8%
Cc1nn(Cc2cccc(F)c2)c(C)c1NC(=O)c1c(Cl)cnn1C | -20% | -4%
COc1ccc(C(CNC(=O)COc2ccc(Cl)cc2C)N2CCCCC2)cc1 (centres undefined) | i | -11%
CCCS(=O)(=O)c1nc(S(=O)(=O)c2ccc(C)cc2)c(N(C)Cc2ccccc2)s1 | i | -15%
CCOC(=O)c1cc(-c2ccc(OC)cc2)n(CCC(=O)NCCN2CCC(C)CC2)c1C | -12% | ?
O=C(Nc1sc2c(c1C(=O)NCc1ccco1)CCCC2)c1cc(=O)c2cc(Cl)ccc2o1 | 6% | -2%
COc1ccc(C)cc1Nc1n[n+](-c2ccccc2)c(-c2ccc(OC)c(OC)c2OC)s1 | ? | -10%
Cc1ccc(-n2nc(C)c3c(C(=O)Nc4ccc(Br)c(C)c4)cc(C)nc32)cc1 | -6% | -11%
Nn1c(SCC(=O)N2CCN(S(=O)(=O)c3ccccc3)CC2)nnc1-c1cccs1 | i | -14%
Cc1ccc(S(=O)(=O)N(CCc2ccccc2)CC(=O)Nc2ccccc2C)cc1 | -12% | -3%
O=C(Nc1cccc2ncccc12)c1ccc([N+](=O)[O-])o1 | ? | ?
COc1ccc(C2SCC(=O)N2c2c(C)n(C)n(-c3ccccc3)c2=O)cc1 (centres undefined) | . | -11%
CCOC(=O)c1cnn(-c2nc(C)cc(C)n2)c1N | -5% | -18%
Cc1ccc(NC(=O)CC2Nc3ccccc3NC2=O)cc1C (centres undefined) | -10% | -5%
COc1cccc(OC2(C)CCN(Cc3cccn3-c3nccs3)C2)c1 (centres undefined) | -6% | 1%
Cc1ccc(N(CC(=O)NCc2cccnc2)S(C)(=O)=O)cc1C | -14% | -6%
Cc1coc2c1c(C)cc1oc(=O)c(CC(=O)NCCCCCC(=O)O)c(C)c12 | i | -8%
O=C1C=C(c2ccc(Cl)cc2)OC2(CCCC2)O1 | -24% | -12%
CN(C)CCCN1C(=O)c2cccc3cccc(c23)C1=O | -12% | -19%
Cc1cccc(NC(=O)c2cc(Cl)nc3ccccc23)n1 | 0% | -1%
COCCCNc1nc2cc(OC)c(OC)cc2c2nc(-c3ccccc3)nn12 | -24% | -13%
Cc1nn(C)cc1CNC(=O)/C=C/c1cnn(C)c1 | -11% | -7%
COC(=O)c1ccccc1NC(=O)c1cnc(Nc2ccc(OC)cc2)c2ccccc12 | -3% | -17%
NC(=O)NC(CC(=O)N1CCc2ccccc2C1)c1ccc(Cl)cc1 (centres undefined) | 3% | 5%

Profiles from above. Screens in order: Vaccinia mCherry | Vaccinia Venus
COc1ccc(/C=N/NC(=O)c2cc(C3CC3)[nH]n2)cc1OC as listed: -11%[7.34 µM] | -13%[7.34 µM]
Cc1cccc(NC(=O)c2cc(Cl)nc3ccccc23)n1 as listed: 0% | -1%

The listing picks up, starting 2 compounds before the break.
Structure | Vaccinia mCherry | Vaccinia Venus
COC(=O)c1ccccc1NC(=O)c1cnc(Nc2ccc(OC)cc2)c2ccccc12 | -3% | -17%
NC(=O)NC(CC(=O)N1CCc2ccccc2C1)c1ccc(Cl)cc1 (centres undefined) | 3% | 5%
CSc1nc(C(C)C)ccc1CNC(=O)CC(C)c1ccccc1 (centres undefined) | i | 2%
CCCCOc1nc2c(c(=O)n(C)c(=O)n2C)n1C | 3% | -7%
COc1ccc(NC(=O)Cn2c(=O)n(Cc3ccco3)c(=O)c3cc(OC)c(OC)cc32)cc1 | 2% | 5%
O=C(CSc1nc(-c2ccccc2)[nH]c1-c1ccc(F)cc1)NC1CCCC1 | -11% | -16%
O=[N+]([O-])c1ccc(C=NN=Cc2ccc([N+](=O)[O-])cc2)cc1 | i | -2%
CCN(C[C@H]1N[C@@](CC)(C(=O)OC)[C@H]2C(=O)N(Cc3ccccc3)C(=O)[C@@H]12)C(=O)c1ccccc1 | -15% | 1%
CCCCN(C(=O)CCNC(=O)NC12CC3CC(CC(C3)C1)C2)c1c(N)n(CCCC)c(=O)[nH]c1=O | -12% | ?
O=C(CSc1ncc(CO)n1Cc1ccccc1)Nc1ccc(C(F)(F)F)cc1 | -14% | -16%
